High-throughput results: PubChem BioAssay, National Center for Advancing Translational Sciences (NCATS)
CtBP-E1A inh – qHTS Assay for Inhibitors of the CtBP/E1A Interaction | actives 0.49% (n = 340,000) | CtBP / adenovirus E1A interaction (AlphaScreen) | AlphaScreen GST-E1A/His-CtBP binding, 1536-well; stronger effect = lower value; control for the full effect not named in the record | AID 651724, 2012 | activity change, % (no concentration beside the values); in the data active means activity change below about -65%; inconclusive means about -30% to -65%; inactive means above about -30%; further: on the % scale 0 is the no-effect control and ±100 the full control effect; compound concentration not given in the record
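Homogeneous bead-based format: GST-tagged E1A captured on glutathione donor beads, His-tagged CtBP on nickel acceptor beads; compounds precede bead addition by 2 h at 37 °C.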
D2 potentiator – Beta-Arrestin HTS for Positive Allosteric Modulators of the Human D2 Dopamine Receptor: Potentiators | D(2) dopamine receptor (Homo sapiens), P14416 | DiscoveRx D2 beta-arrestin cells, luminescence, 90 min; 100% = 57 uM dopamine signal | potentiation, % (no concentration beside the values) | actives 0.23% (n = 360,000); active = potentiation of 50% or more; inconclusive = 30% to 50%; inactive = 30% or less;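 further: compound concentration not given in the record; tested on top of an EC20 dose of dopamine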
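PathHunter D2 cells, attached overnight at 37 deg C, received compound in DMSO plus dopamine at EC20 (50 nM final) for 90 min at 37 deg C. Beta-arrestin recruitment was read as luminescence after 1 h with detection reagent at ambient temperature.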
PINK1 modulator – A Quantitative High throughput Screen to Identify Chemical Modulators of PINK1 Expression | Potency, µM (top dose mostly 76.6 µM), for inactives: at the highest dose activation (PINK1 increase), hits mostly activators | actives 0.2% (n = 410,000) | AID 624263, 2012 | PINK1 immunofluorescence, high-content cytometry, 24 h; active = well fitted activation curve with a large enough effect; inconclusive = small, poorly fitted or top-dose-only effect; inactive = flat fitted curve, though single readings scatter; cell line not stated here;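 further: potency means the concentration at half of the fitted maximal effect; % of control where 0% means no effect; nearly all actives have a fitted effect of over 65% in size; a mitochondrial uncoupler was the plate control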
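PINK1 protein, normally rapidly degraded, was detected by immunofluorescence after 24 hour compound treatment of a stable cell line. Titration data (5 concentrations) came from laser-scanning cytometry, with CCCP-treated wells as controls.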
Six1-Eya2 inh – qHTS Assay for Inhibitors of the Six1/Eya2 Interaction. AlphaScreen GST-Six1/His-Eya2 binding, biochemical; stronger effect = lower value; control for the full effect not named in the record. activity change, % (no concentration beside the values). Homeobox protein SIX1 (Homo sapiens) + Protein phosphatase EYA2 (Homo sapiens), …. AID 651725, 2012. actives 0.56% (n = 360,000); in the data active = activity change below about -65%; inconclusive = about -30% to -65%; inactive = above about -30%; further: on the % scale 0 is the no-effect control and ±100 the full control effect; compound concentration not given in the record
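AlphaScreen luminescence read after one hour at 37 °C in darkness. Pin-transferred compounds met GST-Six1 and His-Eya2 protein (5X stock 250 nM/500 nM) plus glutathione donor and Ni-chelate acceptor beads (5X, 50 ug/mL).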
Sfp inh – qHTS Assay for Inhibitors of Bacillus subtilis Sfp phosphopantetheinyl transferase (PPTase); AID 1490, 2009; Biochemical Sfp PPTase activity, qHTS; Potency, µM, inactives show max response, negative = inhibition, usual class: inhibitors; 4'-phosphopantetheinyl transferase ffp (Bacillus subtilis), Q9F4F7; actives 3.5% (n = 310,000); active means well fitted inhibition curve with a large enough effect; inconclusive means small, poorly fitted or top-dose-only effect, or another doubt; inactive means no such curve, though single readings can be large or run the other way;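 further: the enzyme is Sfp with the accession as filed and its product quenches rhodamine fluorescence; potency means the concentration at half of the fitted maximal effect; 0% = enzyme reaction without inhibitor and -100% = no enzyme wells; top concentration of the series not given in the record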
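Fluorescence-quenching assay: 15 nM Sfp-PPTase preincubated 15 min at room temperature with compound, then 5 uM rhodamine-CoA and 12.5 uM BHQ-2-labelled YbbR peptide added. Fluorescence (ex 525/em 598 nm) read at start and after 30 min; difference gives rate.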
TRPV1 potentiator – HTS Assay for Compounds that Act as Potentiators of the Vanilloid Receptor 1; Transient receptor potential cation channel subfamily V member 1 (Homo sapiens), Q8NER1; TRPV1-expressing cells, Fluo-8 calcium influx, capsaicin EC20 potentiation; host cell line not named in the record; control for the full effect not named in the record; potentiation, % at 8.33 µM; actives 0.02% (n = 320,000); AID 540277, 2011; active means potentiation above 80%; inconclusive means 30% to 80%; inactive means below 30%; further: 0% is about no effect
Target sequence (Q8NER1 whole entry, looked up): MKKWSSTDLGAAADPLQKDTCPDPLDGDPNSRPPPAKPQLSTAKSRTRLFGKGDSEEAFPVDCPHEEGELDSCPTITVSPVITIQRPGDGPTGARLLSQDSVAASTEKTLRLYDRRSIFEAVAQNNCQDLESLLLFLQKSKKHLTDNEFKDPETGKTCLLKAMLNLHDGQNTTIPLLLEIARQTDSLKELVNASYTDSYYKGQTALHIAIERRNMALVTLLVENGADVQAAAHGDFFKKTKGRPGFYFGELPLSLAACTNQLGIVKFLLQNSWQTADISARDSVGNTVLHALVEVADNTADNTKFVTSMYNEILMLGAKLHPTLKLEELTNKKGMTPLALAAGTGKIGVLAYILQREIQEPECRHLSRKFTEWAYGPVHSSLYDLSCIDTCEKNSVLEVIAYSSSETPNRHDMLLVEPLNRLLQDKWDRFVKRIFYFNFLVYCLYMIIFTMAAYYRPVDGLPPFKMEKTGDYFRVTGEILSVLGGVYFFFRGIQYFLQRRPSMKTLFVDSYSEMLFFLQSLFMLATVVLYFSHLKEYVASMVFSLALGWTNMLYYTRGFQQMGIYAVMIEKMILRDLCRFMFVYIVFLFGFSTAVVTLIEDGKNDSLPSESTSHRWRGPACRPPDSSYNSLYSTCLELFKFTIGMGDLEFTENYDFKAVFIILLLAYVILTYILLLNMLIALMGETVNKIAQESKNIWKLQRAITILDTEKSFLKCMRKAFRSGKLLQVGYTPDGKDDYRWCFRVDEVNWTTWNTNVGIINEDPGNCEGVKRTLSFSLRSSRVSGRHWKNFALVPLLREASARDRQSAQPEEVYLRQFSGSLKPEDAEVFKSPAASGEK
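Cells expressing TRPV1 were dye-loaded with Fluo-8 and read kinetically: 10 s baseline, 3 min after compound (agonist portion), then 2 min after EC20 capsaicin (allosteric enhancer portion). Calcium-bound dye fluorescence at 480/520 nm.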
D2 ag – Beta-Arrestin HTS for Positive Allosteric Modulators of the Human D2 Dopamine Receptor: Agonists | actives 0.084% (n = 360,000) | AID 624465, 2012 | D(2) dopamine receptor (Homo sapiens), P14416 | DiscoveRx PathHunter D2 beta-arrestin, luminescence, 90 min; 100% = 57 uM dopamine signal | activation, % (concentration not given with the values); in the data active = activation above about 40%; inconclusive = about 15% to 40%; inactive = below about 15%; further: compound concentration not given in the record; the text of the record calls up to 30% inactive
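Agonist mode: compounds alone added to overnight-plated D2 PathHunter cells for 90 min at 37 C, with 57 uM final dopamine (EC100) defining full response. Beta-arrestin recruitment detected by chemiluminescent reagent, read after 1 h at ambient temperature.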
Active calls of the source: *; ? = inconclusive; . = no result given; & = joins results of further samples; [ ] = dose if it differs, or a comment.

item	SMILES	CtBP-E1A inh	D2 potentiator	PINK1 modulator	Six1-Eya2 inh	Sfp inh	TRPV1 potentiator	D2 ag
1	O=C(NCCCNC(=O)c1ccccn1)c1ccc(F)cc1	3	-11	-1.5%	-4	15%	6	-3.0
2	COc1cc(/C=N/n2c(C)nc3ccccc3c2=O)cc(OC)c1O	.	1	0.4%	-5	-3%	-11	0.2
3	Cc1ccccc1CN(c1ccc(C(=O)NCCC2=CCCCC2)cc1)S(C)(=O)=O	-2	-1	0.2%	3	9%	-18	1.5
4	O=C(NCCO)c1cccc2c1C(=O)c1ccccc1-2	-3	-2	0.0%	-4	1%	5	0.1
5	Cc1ccc(-c2ccc(=O)n(CC(=O)NCCN(C)C)n2)cc1	5	-4	.	3	10%	1	-4.5
6	COc1c2ccoc2nc2c(OC)c(OC[C@@H](O)C(C)(C)O)ccc12	1	-6	-0.2%	-2	.	-1	2.2
7	COc1cccc(NC(=O)CN(C)C(C)C(=O)Nc2cc([N+](=O)[O-])ccc2Cl)c1 (stereo not given)	6	-6	1.2%	-29	0%	-4	-1.7
8	CC(NC(=S)NCCN1CCOCC1)C12CC3CC(CC(C3)C1)C2 (stereo not given)	-6	-9	-0.7%	-5	-11%	-10	-4.2
9	Cc1ccc(OCC(=O)N/N=C/c2ccncc2)cc1C	1	0	-1.6%	0	3%	-24	3.3
10	COC(=O)CCC(C)C1CCC2C3CCC4CC(O)CCC4(C)C3CC(O)C12C (stereo not given)	4	-18	1.5%	2	.	.	-2.3
11	O=C(COC(=O)c1ccccn1)Nc1ccc(S(=O)(=O)N2CCOCC2)cc1	-11	-5	0.1%	-8	12%	-5	-3.4
12	C=CC(COCc1ccccc1)N(Cc1ccc(OC)cc1)S(=O)(=O)c1ccccc1Br (stereo not given)	-13	-3	1.5%	17	12%&11%	-15	-0.9
13	CCN1C2=NCCCN2c2ccccc21	-2	-11	-1.9%	-1	17%	1	-2.5
14	CCOc1ccc(/C=C(\C)C(=O)c2c(C)cc(C)[nH]c2=O)cc1	.	-2	-0.3%	8	25%	-1	3.4
15	NC(=O)c1cccc(-c2ccnc3c2CC(C(=O)NCCc2ccccc2)O3)c1 (stereo not given)	-12	-4	12%	-15	.	.	-0.8

item	SMILES	CtBP-E1A inh	D2 potentiator	PINK1 modulator	Six1-Eya2 inh	Sfp inh	TRPV1 potentiator	D2 ag
16	CC(=O)Nc1ccc(Nc2cc(C)nc3ccccc23)cc1	6	-12	2.9%	3	.	.	-0.8
17	CCn1c2ccccc2c2nnc(SCC(=O)Nc3ccc4c(c3)OCO4)nc21	-14	-25	?	1	-9%	-14	-1.6
18	O=S(CCc1ccncc1)Cc1ccccc1 (stereo not given)	6	-9	0.6%	5	15%	6	-3.0
19	COc1ccc(/C=N/NC(=O)Cn2nnc3ccccc32)cc1OC	1	-10	4.0%	-25	5%	2	-1.5
20	O=C(CNS(=O)(=O)c1cccs1)N1CCc2ccccc2C1	0	-10	-1.1%	-3	2%	10	-0.9
21	COc1ccc(OCC(O)CN2CCN(CC(O)COc3ccc(OC)cc3)CC2)cc1 (stereo not given)	-1	-2	-0.2%	-1	9%	21	4.6
22	COc1ccc(C2SCC(=O)N2CC23CC4CC(CC(C4)C2)C3)cc1 (stereo not given)	0	-10	-0.2%[38.3 µM]	12	-14%	1	-1.7
23	C=C(C)c1cccc(C(C)(C)NC(=O)N2CCN(CC(N)=O)CC2)c1	1	7	0.3%	19	5%	-4	-0.8
24	COc1ccc(N2CC(NC(=O)NCCC(C)C)CC2=O)cc1 (stereo not given)	-9	-4	-0.6%	11	10%	3	0.1
25	COc1ccc(/C=N/NC(=O)CN2CCSCC2)c(OC)c1	5	1	-0.1%	0	-2%	-10	-1.0
26	COc1ccc(N(C(=O)Cn2nnc(-c3ccc(F)cc3)n2)C(C)C(=O)NC2CCCC2)cc1 (stereo not given)	19	-7	4.1%	2	14%	0	-4.0
27	Cc1ccccc1NC(=O)Cn1nnc2sc3c(c2c1=O)CC(C)(C)OC3	0	-1	1.7%	8	4%	-1	6.6
28	CN(C)S(=O)(=O)c1cccc(C(=O)Nc2cc(S(=O)(=O)N3CCOCC3)ccc2O)c1	3	-35	2.4%	-14	.	-12	-12
29	Cc1ccc(-c2nnn(Cc3nc4ccccc4s3)n2)cc1	41	-1	0.0%[38.3 µM]	25	-11%	-4	-0.1
30	O=C(Nc1ccccc1Cl)c1cc(=O)c2ccccc2o1	-10	-10	0.7%	-3	2%	-6	1.5

Rewritten with two lines to a compound: 2 of the compounds above
Each structure is followed by: CtBP-E1A inh | D2 potentiator | PINK1 modulator | Six1-Eya2 inh | Sfp inh | TRPV1 potentiator | D2 ag
23: C=C(C)c1cccc(C(C)(C)NC(=O)N2CCN(CC(N)=O)CC2)c1
    1 | 7 | 0.3% | 19 | 5% | -4 | -0.8
24: COc1ccc(N2CC(NC(=O)NCCC(C)C)CC2=O)cc1 (stereo not given)
    -9 | -4 | -0.6% | 11 | 10% | 3 | 0.1

Other structures follow:
item	SMILES	CtBP-E1A inh	D2 potentiator	PINK1 modulator	Six1-Eya2 inh	Sfp inh	TRPV1 potentiator	D2 ag
31	CCOC(=O)Nc1ccc(C(=O)c2ccncc2)cc1	12	-1	2.7%	1	3%	-12	4.4
32	CCOC(=O)C(=O)Nc1cc(Cl)ccc1C	5	-17	2.3%	6	6%	-20	0.5
33	O=C(CSc1ncn[nH]1)c1ccco1	1	0	-2.0%	4	?	-3	-4.2
34	CN(CC(=O)N1CCC(C(N)=O)CC1)S(=O)(=O)c1ccc2ccccc2c1	-15	-5	0.2%	-1	3%	-4	3.8
35	CC(=O)CC(=O)Nc1ccc(Cl)cn1	9	-3	0.5%	7	-10%	4	-7.2
36	COC(=O)Cn1c(C)nc2c(sc3nc(C)cc(C)c32)c1=O	1	0	2.8%	0	17%	-20	-2.9
37	Cc1onc(-c2ccccc2Cl)c1C(=O)NCc1ccc(N2CCCC2=O)cc1	-4	-11	-0.1%	-8	15%	-7	-2.2
38	CCn1ccnc1CNCc1ccc(OCC(O)CN(C)Cc2ccccc2)cc1 (stereo not given)	.	-9	-0.3%	-2	-7%	1	6.6
39	COc1ccc2cc3c(N)nn(C(=O)Cc4ccccc4OC)c3nc2c1	-23	-1	3.0%	-9	12%	-13	-6.0
40	COC(=O)c1sccc1NC(=O)c1cc(-c2ccc(C)cc2)nc2ccccc12	-2	-13	16%	2	5%	-1	-3.9
41	CCOc1ccc(N2CC(C(=O)Nc3nnc(SCCOC)s3)CC2=O)cc1 (stereo not given)	-2	-1	0.8%	4	11%	4	-2.4
42	COc1ccccc1N1CCN(C2CCCCC2NS(=O)(=O)c2ccc(Cl)cc2)CC1 (stereo not given)	?	-26	-0.6%	-12	-5%	-1	-1.4
43	Cc1cc(CN2CCCC(CNC(=O)c3ccc(F)cc3)C2)cc(C)c1O (stereo not given)	-20	-24	0.2%	9	3%	-6	-1.0
44	Cn1cccc1/C=N/N1CCN(Cc2ccccc2)CC1	.	-32	0.1%	-19	-23%	.	-6.5
45	Cc1cc(=O)c2ccc(Cl)cc2[nH]1	-3	-41	-0.1%	-1	4%&-1%	2	-0.5

item	SMILES	CtBP-E1A inh	D2 potentiator	PINK1 modulator	Six1-Eya2 inh	Sfp inh	TRPV1 potentiator	D2 ag
46	C[C@H](CO)N1C[C@H](C)[C@@H](CN(C)Cc2ccc(C(=O)O)cc2)Oc2c(NS(=O)(=O)c3cn(C)cn3)cccc2C1=O	-8	-13	0.0%	4	.	.	1.1
47	CC(C)Cn1cnc2c(SCc3ccccc3F)nc(N)nc21	-1	15	7.5%	-5	.	.	0.7
48	O=C(CSc1nc2ccccc2s1)Nc1cc(C(=O)O)cc(C(=O)O)c1	-2	-8	-0.2%	2	56µM*	12	-18
49	CCOC(=O)c1ccc(CNCc2ccc(C)cc2)cc1	-1	-31	1.7%	15	9%	-2	-5.7
50	CCN(CCCNC(=O)CC1Oc2ccc(C)cc2NC1=O)Cc1ccccc1 (stereo not given)	0	-8	-3.4%	-2	?	5	-3.4
51	CC(C)(C)OC(=O)NCC(=O)N1CCC(C(=O)O)CC1	-2	-10	-0.2%	7	14%	25	-3.4
52	Cc1ccnc(NS(=O)(=O)c2ccc(NC(=O)c3cncc(Br)c3)cc2)n1	-6	-1	-0.7%	9	16%	-14	-0.1
53	CCC(CC)C(=O)Nc1cccc(C(=O)NCCc2ccccc2)c1	.	-31	-1.6%	2	25%	11	-1.8
54	CN1CCc2c(sc3nc(SCC(N)=O)n(-c4ccccc4)c(=O)c23)C1	-24	-3	5.5%	-2	16%	7	-1.5
55	Cc1cccc(NC(=O)CSc2ccc(-c3cccs3)nn2)c1C	0	-3	?	-5	-5%	-3	9.0
56	COc1cc(/C=C2/SC(=S)N(Cc3ccccc3)C2=O)cc(OC)c1O	?	-9	3.0%	?	?	19	0.4
57	COc1cc(CCC(=O)OCC(=O)N(CCC#N)c2ccccc2)cc(OC)c1OC	3	-4	-1.8%	0	17%	14	-4.5
58	COc1ccccc1NC(=O)Cc1noc(CSc2cc(C)c3ccccc3n2)n1	4	-11	-1.1%	0	-7%	-2	-4.9
